Compound activity: PubChem, National Center for Advancing Translational Sciences (NCATS)
Cruzain Triton: blocks cruzain activity in presence of Triton detergent. actives 0.43% (n = 200,000). purified cruzain, Z-FR-AMC fluorescence, 0.01% Triton. AID 1478. Potency, µM, for the others: max response, negative = inhibition, actives largely listed as inhibitors. P25779;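 further: plate controls were neutral wells for no effect and buffer without enzyme for full effect; nearly all actives have a fitted effect of over 40% in size; top concentration of the series not given in the record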
Target sequence (P25779 123-467 limits assumed): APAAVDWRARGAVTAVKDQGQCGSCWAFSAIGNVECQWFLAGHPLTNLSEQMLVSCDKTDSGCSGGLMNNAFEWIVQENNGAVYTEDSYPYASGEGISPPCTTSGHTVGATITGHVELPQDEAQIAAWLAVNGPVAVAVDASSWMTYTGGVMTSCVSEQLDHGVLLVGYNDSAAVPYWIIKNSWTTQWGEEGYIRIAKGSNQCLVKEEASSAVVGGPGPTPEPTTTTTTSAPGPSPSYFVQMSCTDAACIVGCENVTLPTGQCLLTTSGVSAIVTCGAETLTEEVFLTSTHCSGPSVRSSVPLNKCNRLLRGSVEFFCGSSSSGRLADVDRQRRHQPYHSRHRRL
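Detergent-containing arm of a paired screen for aggregation-based inhibition: 0.01% Triton X-100 present. Cruzain at 1.5 nM cleaved 2 uM Z-FR-AMC at pH 5.5 with 5 mM DTT; AMC fluorescence gain over 60 s measured activity.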
MARV entry inh: blocks Marburg virus binding to or entry into cells; AID 540276; Marburg virus pseudotyped entry inhibition, cell reporter; control for the full effect not named in the record; about a third of the inactives were read at about 46 µM; Potency, µM (titrated, usually from 37.8 µM), without a hit: at the highest dose activity change, negative = inhibition, hits mostly inhibitors; actives 1.8% (n = 300,000); active = well fitted inhibition curve with a large enough effect; inconclusive = small, poorly fitted or top-dose-only effect, or effect the other way; inactive = flat fitted curve, though single readings scatter; tested in HEK293 cells; about a fifth of its hits are not listed in these tables; further: on the % scale 0 is the no-effect control and ±100 the full control effect; luciferase read-out
NS1 function inh: blocks influenza NS1 protein function; actives 0.4% (n = 270,000); S. cerevisiae slowed by influenza A NS1, growth recovery by OD600; Potency, µM (top dose mostly 46.1 µM), without a hit: at the highest dose activity, positive = more growth; AID 2326; active means well fitted rising curve with a large enough effect; inconclusive means small, poorly fitted or top-dose-only effect; inactive means no such curve, though single readings can be large or run the other way; further: nearly all actives have a fitted effect of over 50% in size
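S. cerevisiae expressing influenza A NS1, grown in glucose, washed, then diluted 1:100 into pH 6.0 -URA galactose medium with 23 nl compound. Growth recovery read as OD600; NS1-free strain serves as control.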
Lassa entry inh: blocks Lassa virus binding to or entry into cells; Lassa virus pseudotype entry inhibition, cell reporter; control for the full effect not named in the record; Potency, µM (series often up to 37.9 µM), for the others: at the highest dose activity change, negative = inhibition, actives largely listed as inhibitors; actives 1.2% (n = 300,000); AID 540256; active means well fitted inhibition curve with a large enough effect; inconclusive means small, poorly fitted or top-dose-only effect, or effect the other way; inactive means flat fitted curve, though single readings scatter; tested in HEK293 cells; further: on the % scale 0 is the no-effect control and ±100 the full control effect; nearly all actives have a fitted effect of over 50% in size; luciferase read-out
StopGo reporter: lowers the luciferase signal of an FMDV 2A StopGo reporter | actives 1.2% (n = 410,000) | Potency, µM (highest dose often 57.9 µM), without a hit: at the highest dose signal change, negative = less light | AID 1159524 | human cells with a luciferase reporter of 2A StopGo recoding; control for the full effect not named in the record; active = well fitted falling curve with a large enough effect; inconclusive = small, poorly fitted or top-dose-only effect; inactive = no such curve, though single readings can be large or run the other way; tested in HEK293T cells; further: on the % scale 0 is the no-effect control and ±100 the full control effect; nearly all actives have a fitted effect of over 45% in size; luciferase light after 4 h
Cruzain noTriton: inhibitors of Trypanosoma cruzi cruzain without detergent. Potency, µM, for the others: max response, negative = inhibition, actives largely listed as inhibitors. AID 1476. actives 2.3% (n = 200,000). purified cruzain, Z-FR-AMC fluorescence, no detergent;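 further: plate controls were enzyme without inhibitor for no effect and buffer without enzyme for full effect; nearly all actives have a fitted effect of over 40% in size; top concentration of the series not given in the record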
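Purified cruzain at 1.5 nM, pre-incubated 15 min with compound at room temperature in 100 mM sodium acetate pH 5.5, 5 mM DTT, 0.00005% Triton X-100. Reaction started with 2 uM Z-FR-AMC; AMC fluorescence increase over 60 s gives rate.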
RE007 growth inh: less growth of the S. pombe RE007 Vpr strain | actives 0.21% (n = 360,000) | S. pombe RE007 Vpr strain, BacTiter-Glo ATP luminescence, 24 h; control for the full effect not named in the record | Potency, µM (top dose mostly 92.2 µM), inactives show at the highest dose activity change, negative = less growth; active = well fitted falling curve with a large enough effect; inconclusive = small, poorly fitted or top-dose-only effect; inactive = no such curve, though single readings can be large or run the other way;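 further: on the % scale 0 is the no-effect control and ±100 the full control effect; nearly all actives have a fitted effect of over 50% in size; the assay follows cell death caused by Vpr and the record does not say whether a fall means rescue or toxicity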
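Fission yeast RE007 carrying one integrated HIV-1 vpr copy, seeded at OD 0.01 in PMG+AL medium with 23 nL pinned compound. Grown 24 h at 30 degrees; viability read by BacTiter-Glo luminescence after 5 min.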
SARS PLpro yeast: SARS-CoV PLP inhibition in yeast | Potency, µM (titrated, usually from 32.9 µM), for the others: top-dose activity, positive = growth rescue | S. cerevisiae expressing SARS-CoV PLpro, growth rescue; control for the full effect not named in the record | actives 0.19% (n = 330,000); active means well fitted rising curve with a large enough effect; inconclusive means small, poorly fitted or top-dose-only effect; inactive means no such curve, though single readings can be large or run the other way; further: 0% is about no effect; nearly all actives have a fitted effect of over 55% in size; growth read by luminescence after 48 h
Starred values were filed as active, the others as inactive; ? = inconclusive; · = not tested or not shown; [ ] = dose if it differs, or a comment. Unless noted, the call rests on the fitted dose curve; in most records, active means well fitted curve in the direction sought with a large enough effect; inconclusive means small, poorly fitted or top-dose-only effect, or another doubt; inactive means no such curve, though single readings can be large; an effect the other way counts as inactive or inconclusive. Potency means the concentration at half of the fitted maximal effect.

1. COc1nc(N/N=C/c2ccc(C)cc2)nc(N2CCCCC2)n1
2. Cc1ccc(/C=C/C(=O)Nc2cccnc2)o1
3. CCOc1ccc(C(=O)NCC(=O)NNC(=O)C2COc3ccccc3O2)cc1OCC (stereo unspecified)
4. Oc1c(/C=N/c2ccccn2)sc2ccccc12
5. COc1ccc(-c2noc(CCCC(=O)NCc3ccco3)n2)cc1OC
6. CCOC(=O)C(Cc1ccccc1)NC(=O)Cn1nnc(-c2ccc(C)cc2)n1 (stereo unspecified)
Screen / compound no.,1,2,3,4,5,6
Cruzain Triton,-3.5%,-4.4%,·,·,-1.8%,-5.0%
Lassa entry inh,2%,11%,30%,·,-24%,1%[46.1 µM]
Cruzain noTriton,8%,-7%,·,·,-5%,-5%
StopGo reporter,3%,57%[activator],-24%,-15%,-5%,-12%
NS1 function inh,-8%,16%,·,-71%,-9%,·
RE007 growth inh,-2%,-3%,-5%,-15%,-10%,·
SARS PLpro yeast,-8%,-8%,0%,-5%,-5%,·
MARV entry inh,-6%,-6%,11%,·,?,-1%[46.1 µM]

7. O=C(NN(C(=O)c1ccccc1)c1cccs1)c1ccccc1
8. Cc1ccc(-n2ncc3c(NC4CCCCCC4)ncnc32)cc1Cl
9. COC(=O)C(CCSC)NC(=O)c1cn(-c2ccc(OC)cc2)c(=O)c2ccccc12 (stereo unspecified)
10. CCOC(=O)N1CCC(NC(=O)CSCc2nc(-c3ccccc3Cl)oc2C)CC1
11. COc1ccc2oc(C(=O)OC(C)C(=O)N(C)c3ccccc3)c(C)c2c1 (stereo unspecified)
12. COc1ccc(C(=O)c2ccc(N3CCOCC3)c([N+](=O)[O-])c2)cc1
Screen / compound no.,7,8,9,10,11,12
Cruzain Triton,·,1.8%,·,·,·,·
Lassa entry inh,9%[46.1 µM],25%[46.1 µM],·,?,?,-15%
Cruzain noTriton,·,9%,·,·,·,·
StopGo reporter,11%,-5%,-7%,-22%,42%[activator],?
NS1 function inh,·,·,-9%,-8%,·,1%
RE007 growth inh,5%,·,14%,-17%,2%,2%
SARS PLpro yeast,·,·,1%,-1%,2%,0%
MARV entry inh,-2%[46.1 µM],·,·,-14%[46.1 µM],13%,-22%[46.1 µM]

13. COc1ccc(OC)c(NC(=O)NC2CCCCCCC2)c1
14. CC(=O)c1sccc1NC(=O)c1ccccc1C(=O)O
15. COc1ccccc1OC(C)C(=O)Nc1ccc2c(c1)n(C)c(=O)n2C (stereo unspecified)
16. O=C(Nc1ccc(N2CCOCC2)cc1N1CCOCC1)c1ccc([N+](=O)[O-])cc1
17. O=C1CCCN1CCCNc1ncnc2c1cnn2-c1ccc(Cl)cc1
18. COc1ccc(-c2ccccc2)cc1NC(=O)c1ccncc1
Screen / compound no.,13,14,15,16,17,18
Cruzain Triton,·,·,·,2.2%,2.5%,·
Lassa entry inh,·,24%[46.1 µM],·,7%,·,22%[46.1 µM]
Cruzain noTriton,·,·,·,-9%,27%,·
StopGo reporter,-10%,-2%,1%,-3%,-13%,-15%
NS1 function inh,1%,-1%,0%,4%,-35%,·
RE007 growth inh,13%,7%,-12%,0%,2%,-1%
SARS PLpro yeast,-1%,1%,-7%,2%,0%,·
MARV entry inh,·,21%[46.1 µM],·,4%,·,?

19. COc1ccccc1OCCCCN1CCC(C)CC1
20. O=C(CN1CCCC1)Nc1ccccc1Sc1ccccc1
21. CCOC(=O)Cn1c(=N)n(Cc2ccccc2)c2ccccc21
22. Cc1cc(NC(=O)COc2coc(CN3CCN(c4ccccc4)CC3)cc2=O)no1
23. CCCC(c1nnnn1Cc1ccco1)N1CCN(c2ccccc2)CC1 (stereo unspecified)
24. COc1ccc(NC(=O)c2c(NC(=O)COc3ccccc3)sc3c2CCCCC3)cc1
Screen / compound no.,19,20,21,22,23,24
Cruzain Triton,·,·,1.4%,·,·,-0.5%
Lassa entry inh,-30%,1%,2%,3%,-10%,14%[46.1 µM]
Cruzain noTriton,·,·,-6%,·,·,-6%
StopGo reporter,4%,-8%,-29%,-10%,-24%,3%
NS1 function inh,5%,·,-4%,·,-7%,·
RE007 growth inh,26%,-8%,0%,5%,-7%,·
SARS PLpro yeast,-1%,-1%,?,-1%,-1%,·
MARV entry inh,?,?,-4%[46.1 µM],?,-19%[46.1 µM],-3%[46.1 µM]

Entries of single compounds, looked up by structure. Screens in order: Cruzain Triton, Lassa entry inh, Cruzain noTriton, StopGo reporter, NS1 function inh, RE007 growth inh, SARS PLpro yeast, MARV entry inh
Listed for `COc1ccc(NC(=O)c2c(NC(=O)COc3ccccc3)sc3c2CCCCC3)cc1` : -0.5%, 14%[46.1 µM], -6%, 3%, ·, ·, ·, -3%[46.1 µM]
Listed for `CCCC(c1nnnn1Cc1ccco1)N1CCN(c2ccccc2)CC1` (stereo unspecified) : ·, -10%, ·, -24%, -7%, -7%, -1%, -19%[46.1 µM]

Next part.
25. CCOc1ccc(NC2=NCC(=O)N2CCc2ccccc2)cc1
26. COc1ccc(-c2noc(-c3ccccc3NC(=O)c3cc(OC)c(OC)c(OC)c3)n2)cc1
27. CN(C(=O)COC(=O)c1cnc(Cl)c(Cl)c1)C1CCCCC1
28. O=C(Cc1cccs1)N1CCN=C1SCc1ccc(Br)cc1
29. Cc1cc(OCC(=O)Nc2cc(-c3nn4c(C)nnc4s3)ccc2C)ccc1Cl
30. Cc1nn(-c2ccccc2)cc1C(c1c(N)[nH]c(=S)[nH]c1=O)c1c(N)[nH]c(=S)[nH]c1=O
Screen / compound no.,25,26,27,28,29,30
Cruzain Triton,0.7%,-1.5%,·,·,-0.1%,·
Lassa entry inh,-5%,23%[46.1 µM],?,-2%,·,10%
Cruzain noTriton,17%,1%,·,·,3%,·
StopGo reporter,-7%,?,-15%,-20%,?,3%
NS1 function inh,2%,·,·,·,-5%,4%
RE007 growth inh,-3%,·,-11%,-8%,-12%,9%
SARS PLpro yeast,4%,·,1%,0%,-8%,0%
MARV entry inh,-28%[46.1 µM],21%[46.1 µM],?,?,·,8%[46.1 µM]

31. Nc1cc2c(cc1[N+](=O)[O-])OCO2
32. CCC(C(=O)NCCc1ccccc1OC)n1nc(C)c2c(C)n(-c3ccccc3)nc2c1=O (stereo unspecified)
33. CCOC(=O)/C=C1\SCC(=O)N1CC(=O)c1ccc[nH]1
34. Cc1c(C(=O)OCC(=O)N(CCC#N)c2ccccc2)oc2c1ccc1ccccc12
35. O=C(Nc1nnc(CCN2CCCCC2)s1)c1cccc(Cl)c1
36. Cc1c(CCC(=O)N[C@@H](C)C(=O)O)c(=O)oc2cc3oc4c(c3cc12)CCCC4
Screen / compound no.,31,32,33,34,35,36
Cruzain Triton,·,·,-5.2%,-3.2%,·,·
Lassa entry inh,3%[46.1 µM],·,12%,?,-3%,·
Cruzain noTriton,·,·,-2%,-5%,·,·
StopGo reporter,-2%,?,-14%,?,16%,-11%
NS1 function inh,10%,9%,11%,2%,-1%,-5%
RE007 growth inh,-8%,-23%,-6%,-4%,-24%,4%
SARS PLpro yeast,0%,2%,2%,0%,1%,0%
MARV entry inh,2%[46.1 µM],·,19%,?,2%[46.1 µM],·

37. CCN(CC)c1ccc(/C=N/N=C(c2ccccc2)c2ccccc2)c(O)c1
38. CCCCn1c(-c2ccncc2)nc2c1c(=O)[nH]c(=O)n2CC(C)C
39. COc1ccc(NC(=O)CCC2CCCCC2)cc1S(=O)(=O)N1CCCCC1
40. Cc1ccc(CNC(=O)C(C)OC(=O)c2ccco2)cc1 (stereo unspecified)
41. Cc1ccc(S(=O)(=O)c2c(N)n(NC(=O)C3CC3)c3nc4ccccc4nc23)cc1
42. COc1ccc(C2=NO[C@@H]3[C@@H]4C[C@@H]([C@H]5C(=O)N(C)C(=O)[C@@H]45)[C@H]23)cc1
Screen / compound no.,37,38,39,40,41,42
Cruzain Triton,-5.3%,3.1%,-5.6%,2.0%,?,2.0%
Lassa entry inh,10µM*,17%,?,-29%[14.3 µM],-2%,-7%
Cruzain noTriton,25µM*,14%,?,-8%,?,3%
StopGo reporter,-18%,-24%,-12%,9%,52%[activator],0%
NS1 function inh,9%,10%,?,0%,-11%,-10%
RE007 growth inh,·,7%,3%,8%,2%,4%
SARS PLpro yeast,9%,-2%,24%,1%,4%,8%
MARV entry inh,?,?,?,0%,-9%,?

43. Cc1ccc(S(=O)(=O)N2CCCCC2)cc1NS(=O)(=O)c1cccc(C(=O)O)c1
44. COc1ccc(N(CC(=O)Nc2c(C)n(C)n(-c3ccccc3)c2=O)S(=O)(=O)c2ccc(C)cc2)cc1OC
45. O=C(C1CCN(S(=O)(=O)c2ccc(Cl)cc2)CC1)N1CCC1
46. CC(=O)c1cccc(NC(=O)Cc2noc3ccccc23)c1
47. C=C(C)CNC(=S)N/N=C\c1ccc2c(c1)OCO2
48. COc1ccc(C(=O)OCc2cc(=O)n3c(C)csc3n2)cc1F
49. CCN(C(=O)COC(=O)c1ccccc1NCCO)C1CCS(=O)(=O)C1 (stereo unspecified)
50. O=C(CCN1C(=O)c2ccccc2S1(=O)=O)N1CCN(c2ccc(F)cc2)CC1
Screen / compound no.,43,44,45,46,47,48,49,50
Cruzain Triton,-2.4%,·,·,-0.2%,-6.0%,·,·,·
Lassa entry inh,7%,11%[46.1 µM],?,?,·,18%,5%,-3%
Cruzain noTriton,2%,·,·,12%,?,·,·,·
StopGo reporter,-16%,26%,-19%,48%[activator],3%,7%,-5%,-28%
NS1 function inh,13%,-6%,·,·,0%,·,·,·
RE007 growth inh,-5%,0%,4%,·,-18%,-15%,-6%,13%
SARS PLpro yeast,-4%,0%,2%,·,-7%,1%,2%,1%
MARV entry inh,?,-17%[46.1 µM],0%,·,3%,3%,-1%[46.1 µM],14%[46.1 µM]
